Screening results: PubChem BioAssay, ICCB-Longwood Screening Facility, Harvard Medical School
Anaer choline gr – blocks anaerobic gram-negative growth on choline | 0.2% of 55,000 active | AID 1963822 | Gram-negative bacterium anaerobic choline minimal medium, absorbance growth; hits give low values; many inactives read as strong as hits in the columns shown | calls only;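 active = growth z-score on choline under -2 at 7 or 20 h with little or no fall on glycerol, limits in tiers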;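 note: stock transfer was 300 nL into about 50 µL; the organism is E. coli; final concentration not given here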
Anaer choline gr early – further read-out of Anaer choline gr, marked with its call; z-score; measured here: choline growth z-score, timepoint 1;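 score of optical density at 7 h as mean of two plates; lower means less growth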
Numbers without * were called inactive; i = inactive; + = active, no number; & = joins results of further samples.

compound,Anaer choline gr,Anaer choline gr early
O=C1NC(=O)/C(=C/c2ccc(-c3ccc(F)cc3O)o2)S1,i,0.16
COc1ccc(-c2oc3ccc(OC)cc3c2C(=O)Nc2ccc(OC)cc2OC)cc1,i,0.5
CCc1noc(-c2ccc(NC(=O)C3CC(=O)N(c4ccccc4C)C3)cc2)n1 (stereo unspecified),i,-1.5
CN1CCN(C2=Nc3cc(F)ccc3Cc3ccccc32)CC1,i,0.65
Cc1nc(-c2csc(S(=O)(=O)N3CCC(C(=O)NCc4ccccn4)CC3)c2)no1,i,-1.1
Cc1cc(C)nc(N2CCN(c3cc(C)nc4c(-c5ccc(F)cc5)cnn34)CC2)n1,i,-0.26
Cn1c(=O)n(C)c2cc(Oc3ccccc3)c(NS(=O)(=O)c3cc(F)ccc3F)cc21,i,0.2
Cn1c(SCC(=O)Nc2nnc(C(F)(F)F)s2)nnc1-c1cc2ccccc2o1,i,-0.85
Nc1c2c(nc3ccccc13)CCCC2,i,-0.5&-0.18&-1.3&0.78
CN(CCc1noc(COc2ccccc2F)n1)S(=O)(=O)c1cc(F)ccc1F,i,0.59
CC1(C(=O)NC2CCCC2)COc2c(oc3ccccc23)C(=O)N1Cc1ccccc1 (stereo unspecified),i,-0.08
Cc1cc(C)c(NC(=O)CN2C(=O)CCn3nc(-c4cccn4C)cc32)c(C)c1,i,0.44

Further records follow:
compound,Anaer choline gr,Anaer choline gr early
C=CCn1c(SCC(=O)NC2CCCCC2)nnc1-c1cc2ccccc2o1,i,-0.46
O=C1C2=C(Nc3ccccc3SC2c2ccc(Br)cc2)c2ccccc21 (stereo unspecified),i,-4.3
O=C(Nc1ccc(Cl)cc1)c1cc(-c2ccncc2)n[nH]1,i,0.13
CC(C)n1c(=O)c(=O)[nH]c2cc(-c3noc(Cc4ccc(Cl)cc4)n3)ccc21,i,-1.2
CCCCN(C)C(=O)CN(C)S(=O)(=O)c1cc2c(cc1C)NC(=O)C(C)O2 (stereo unspecified),i,-0.92
COC(=O)c1sccc1NC(=O)N1CCCC1c1cc(C(C)C)on1 (stereo unspecified),i,1.8
COc1ccc(Nc2ncc3c(n2)CC(C)CC3=O)cc1 (stereo unspecified),i,-0.04
O=c1[nH]c(SCc2cccc(Cl)c2)nc2nc[nH]c12,i,0.7
COc1ccc(C(=O)N(Cc2nc3nc(C)cc(C)n3n2)c2ccc(C)cc2)cc1,i,1.1
CCSc1nsc(NC(=O)c2cccc(Cl)c2)n1,i,-0.45
COCCNC(=O)c1nn(C)c2c1CCc1sccc1-2,i,-0.75
COc1ccc(C2=C(C)C(N3CCC(C(=O)NCc4ccccn4)CC3)=NS2(=O)=O)cc1,i,-1.4

(continued)
compound,Anaer choline gr,Anaer choline gr early
COc1ccc2nc(N(Cc3cccnc3)C(=O)c3ccc4c(c3)OCCO4)sc2c1,i,1.7
CN(C)c1nc(Nc2ccc(Cl)cc2)c2cnn(-c3ccccc3)c2n1,i,1.3
COC(=O)c1cccc(C(=O)N2CCc3ccccc3C2)n1,i,-0.64
O=C(NCC1COCCO1)c1cc2n(n1)CCCN(Cc1ccccc1)C2=O (stereo unspecified),i,-0.62
COc1ccc(-n2nc(C(=O)N3CCN(c4ccccc4)CC3)c(=O)n(C)c2=O)cc1,i,-0.67
CCOc1ccc(-n2nnc3c(N4CCN(C(=O)CCC5CCCC5)CC4)ncnc32)cc1,i,-0.21
COc1ccc(NC(=O)c2c(-c3cccnc3)noc2C)cc1,i,0.28
CSc1nc(C)cc(-n2ccc(=O)[nH]c2=O)n1,i,0.46
Cc1cc2nc(COc3cc(NC(=O)C(C)(C)C)ccc3C)cc(=O)n2o1,i,-0.62
Cc1nn(-c2ccccc2)c2sc(-c3noc(CNC(=O)Cc4ccc(Cl)cc4)n3)cc12,i,1.4
COc1ccccc1Oc1cc(-c2cccc(C(=O)NC3CCCc4ccccc43)c2)ncn1 (stereo unspecified),i,-0.46
Cc1cccc(Cn2cc(C(=O)Nc3ccc(Br)cc3)ccc2=O)c1,i,0.35

Additional entries.
compound,Anaer choline gr,Anaer choline gr early
Cc1nn(-c2ccc3nnc(C)n3n2)c(C)c1CCC(=O)NCCC1=CCCCC1,i,-0.31
O=C(NCC(c1cccnc1)N1CCc2ccccc2C1)C(=O)Nc1ccc2c(c1)OCO2 (stereo unspecified),i,0.31
CC(C)c1cc(C2CCCN2Cc2ccc(Br)s2)on1 (stereo unspecified),i,0.29
Cc1nccc2[nH]c(=O)c(C(=O)NCCN3CCN(c4cccc(Cl)c4)CC3)cc12,i,-0.75
Cc1nnc2c(SCc3cccc(F)c3)nc3ccccc3n12,i,-0.79
O=C(CCCc1nc(-c2ccccc2Cl)no1)Nc1nn[nH]n1,i,0.45
CCn1c(C)c(CN2CCC(C(=O)NCc3ccccc3C)CC2)c2ccccc21,i,-0.03
O=C(NC1CCCC1)c1ccc2cn[nH]c2c1,i,-0.43
Cc1nc(Nc2ccc(NC(=O)Nc3ccccc3)cc2)cc(N(C)C)n1,i,0.92
COC(=O)c1ccccc1NC(=O)c1ccc2c(c1)CCCN2S(C)(=O)=O,i,0.76
Cc1csc(NC(=O)Cc2csc(-n3nc(C)cc3C)n2)n1,i,0.08
COc1cc(OC)cc(C(=O)Nc2cccc(-c3nc(-c4ccccc4)no3)c2)c1,i,1.1

Additional entries follow.
compound,Anaer choline gr,Anaer choline gr early
Cn1nc(C(=O)Nc2nc3ccccc3s2)c2c1-c1ccccc1OC2,i,-0.49
Nc1nonc1C(=O)NCCNC(=O)Nc1cccc(Cl)c1,i,-1.2
CC(C)NCC(O)COc1ccc(CCOCC2CC2)cc1 (stereo unspecified),i,1&0.17&0.2&0.24&-1.1&-0.1&0.98
Cc1noc2ncn(CC(=O)NCCC(C)N3CCCC3)c(=O)c12 (stereo unspecified),i,-0.72
CCCCCn1c(=O)c2sccc2n2c(CCC(=O)N3CCC(N4CCCCC4)CC3)nnc12,i,0.19
O=C(NC1CCCCC1)c1cc(NS(=O)(=O)c2ccc(Cl)cc2)cnc1N1CCNCC1,i,0.66
Cc1cc2c(cc3n2CC(C)(C(=O)NC2CCCCC2)N(CCC(C)C)C3=O)o1 (stereo unspecified),i,-0.32
Cn1c(=O)c2c(-c3ccc(Cl)cc3)n(-c3ccccc3O)cc2n(C)c1=O,i,-0.36
CNC(=O)CN1c2ccc(F)cc2-c2ccccc2S1(=O)=O,i,0.91
CC(=O)N1CCCSc2ccc(S(=O)(=O)NCc3cccnc3)cc21,i,-0.13
Cc1ccc(C)c(NC(=O)c2sc3nc(-c4ccccc4)cn3c2C)c1,i,0.86
Cc1noc(-c2ccc(S(=O)(=O)N3CCCC3)s2)c1C,i,-0.67

The list continues:
compound,Anaer choline gr,Anaer choline gr early
CCCCn1c(CN2CCOCC2)nc2cc(NC(=O)C3CCCCC3)ccc21,i,-0.55
CCN1CCN(CCNc2nc(C3CC3)nc3c2CCC3)CC1,+,-3.1*
O=C(CN1c2ccc(F)cc2-c2ccccc2S1(=O)=O)N1CCOCC1,i,-0.19
CCn1c(C(=O)N2CCOCC2)cc2c(=O)oc3ccccc3c21,i,-0.96
O=C(CNS(=O)(=O)c1cc(-c2noc(C3CCC3)n2)cs1)Nc1ccc(F)c(Cl)c1,i,0.99
CCCCNS(=O)(=O)c1ccc2nc(-c3cccnc3)cc(C(=O)NCCCOCC)c2c1,i,0.19
Cc1ccc2nc(N(Cc3cccnc3)C(=O)c3ccc4c(c3)OCCO4)sc2c1,i,0.18
O=C(NC1CCN(Cc2ccccc2)CC1)C1CCCN(c2ccnc(-c3cccc(F)c3)n2)C1 (stereo unspecified),i,-0.35
COCc1nnc(NC(=O)c2ccccc2OCc2nc(-c3ccccc3)no2)s1,i,-0.84
CC(C)c1cc(C2CCCN2C(=O)C(C)(C)C)on1 (stereo unspecified),i,0.39
CC1=Nc2cc(C(=O)O)ccc2Sc2ccc(C)cc21,i,0.34
Cc1nn(-c2nc3ccccc3o2)c2c1C(c1cccc(Cl)c1)CC(=O)N2 (stereo unspecified),i,-0.72

New compounds follow.
compound,Anaer choline gr,Anaer choline gr early
CCn1c(CN(C)S(=O)(=O)c2cc(C)c(C)cc2C)nc2cc(C(=O)N(C)C)ccc21,i,0.12
CCc1ccc(NC(=O)N2CCC(CN3CCCCC3)CC2)cc1,i,0.2
CCc1nc(CN2C(=O)COc3ccc(S(=O)(=O)Nc4nccs4)cc32)no1,i,-0.47
O=C(C1CCN(S(=O)(=O)c2cccnc2)CC1)N1CCOc2ccccc21,i,-1.3
Cc1ccc(NC(=O)NCCCn2c(-c3ccncc3)nc3cccnc32)cc1Cl,i,-1.9
O=C(CSc1nc(-c2ccccc2)no1)Nc1ccc(Br)cc1,i,2.3
O=c1c2[nH]c3ccc(F)cc3c2ncn1CCc1ccccc1,i,0
O=C(OCC(O)CO)c1ccccc1Nc1ccnc2cc(Cl)ccc12 (stereo unspecified),i,-0.53
COc1ccc(CNC(=O)C2CCN(c3ncnc4c3oc3ccccc34)CC2)c(OC)c1,i,0.28
Cn1c2c(c(SCc3ccc(Cl)cc3)nc1=O)CCC2,i,-1.9
CN1CCN(c2ncnc3c2cnn3-c2ccccc2Cl)CC1,i,-0.46
CS(=O)(=O)c1ccc(Cn2c3c(c4cc(F)cc(F)c42)CCCC3CC(=O)O)cc1 (stereo unspecified),i,-0.68

Complete entries, quoted from the list:
Entry for CCc1ccc(NC(=O)N2CCC(CN3CCCCC3)CC2)cc1 = Anaer choline gr = i; Anaer choline gr early = 0.2
Entry for O=C(OCC(O)CO)c1ccccc1Nc1ccnc2cc(Cl)ccc12 (stereo unspecified) = Anaer choline gr = i; Anaer choline gr early = -0.53

(cont.)
compound,Anaer choline gr,Anaer choline gr early
Cc1nn(-c2nc3ccccc3[nH]2)c2c1C(c1ccc(F)cc1)CC(=O)N2 (stereo unspecified),i,-0.58
CC(C)C(=O)Nc1ccc2c(c1)nc1n2CCN(C(C)C)C1,i,0.02
Cc1ccccc1Cn1cnc2c(cnn2C(C)(C)C)c1=O,i,-2
Cc1cccc(C(=O)NCCc2nc3ccccc3n2CCC(C)C)c1,i,-1.1
Cc1nc2ncnn2c(C)c1CCC(=O)N1CCN(c2ccc(F)cc2)CC1,i,-0.1
COc1ccc(OC)c(CNC(=O)C2Cc3ccccc3CN2S(=O)(=O)c2ccc(C)cc2)c1 (stereo unspecified),i,0.34
CCN1CCCC1CNC(=O)c1ccc(-n2c(C)cc3c2CCCC3)cc1 (stereo unspecified),i,-1.3
COc1ccccc1-c1nc2c3ccccc3ncn2n1,i,0.5
Cc1cccc(-c2noc(-c3cn(-c4ccccc4)c(=O)c4ccccc34)n2)c1,i,0.86
CCSc1nnc(-c2nn(C)c3c2CN(S(=O)(=O)c2cccc(Cl)c2)CC3)n1C,i,-1.6
COCCN1CC(C(=O)NCC2CCCCC2)CC1=O (stereo unspecified),i,0.58
O=S(=O)(NC1CCCC1)c1ccc(-c2nnc(C3CC3)o2)o1,i,0.44

Next results follow:
compound,Anaer choline gr,Anaer choline gr early
O=C1COc2cc(S(=O)(=O)N3CCC(C(=O)N4CCc5ccccc5C4)CC3)c(Cl)cc2N1,i,1.2
O=C(Nc1cccc2c1CCCC2)c1cnn(-c2ccc(Br)cc2)c1,i,0.29
COc1ccc(-c2noc(-c3cn(Cc4ccc(NC(=O)c5ccc6c(c5)OCO6)cc4)cn3)n2)cc1,i,-0.66
Cc1cc(CN2CCN(C3CCN(C)CC3)CC2)n[nH]1,i,0.88
Cc1cc2[nH]c(=O)[nH]c2cc1S(=O)(=O)NC(C)C,i,0.21
O=C(Nc1ccccc1Cl)C1CCCN(c2nc3ccccc3nc2C(F)(F)F)C1 (stereo unspecified),i,2
O=C(CCc1nc(CSc2nc3cc(Cl)ccc3o2)no1)Nc1cc(F)cc(F)c1,i,0.7
Cc1noc(C)c1C1CCCN1Cc1ccccc1F (stereo unspecified),i,-2.1
O=C1CCCc2c1cc(C(=O)NCC1CCCCC1)c(=O)n2-c1ccc(F)cc1,i,-1.1
O=C(CCCn1ccc2cc(S(=O)(=O)N3CCCC3)ccc21)NCCc1ccccc1,i,-0.48
CCCCC(=O)N1CC(=O)Nc2ccc(Br)cc2C1c1ccccc1 (stereo unspecified),i,0.58
Cc1cccc(C(=O)NCCc2nc(-c3ccccc3)no2)c1,i,-0.51

Three entries from above, with two lines to a compound:
Results follow in this order: Anaer choline gr, Anaer choline gr early
- COc1ccc(-c2noc(-c3cn(Cc4ccc(NC(=O)c5ccc6c(c5)OCO6)cc4)cn3)n2)cc1
  i, -0.66
- Cc1cc(CN2CCN(C3CCN(C)CC3)CC2)n[nH]1
  i, 0.88
- Cc1cc2[nH]c(=O)[nH]c2cc1S(=O)(=O)NC(C)C
  i, 0.21

Some values from the results shown.
O=C1COc2cc(S(=O)(=O)N3CCC(C(=O)N4CCc5ccccc5C4)CC3)c(Cl)cc2N1 @ Anaer choline gr early = 1.2
COc1ccc(-c2noc(-c3cn(Cc4ccc(NC(=O)c5ccc6c(c5)OCO6)cc4)cn3)n2)cc1 @ Anaer choline gr early = -0.66
Cc1noc(C)c1C1CCCN1Cc1ccccc1F (stereo unspecified) @ Anaer choline gr early = -2.1
O=C(Nc1cccc2c1CCCC2)c1cnn(-c2ccc(Br)cc2)c1 @ Anaer choline gr early = 0.29

(further entries)
compound,Anaer choline gr,Anaer choline gr early
O=C(CCc1nc(CSc2n[nH]c(-c3ccccc3)n2)no1)Nc1ccc(Br)cc1,i,0.94
COC(=O)c1ccc2c(c1)N(Cc1ccccc1Cl)C(=O)CS2,i,-1.1
CC(C)NC(=O)c1ccc(-c2nc3cc(NS(=O)(=O)CCc4ccccc4)ccc3n2C)cc1,i,2.3
C=CCn1c(=O)c2ccc(C(=O)NCc3ccc4c(c3)OCO4)cc2n(CC(=O)NC2CCCCC2)c1=O,i,0.93

The list is partial; the hit share may differ from the screen's.
